Sfp inh: Sfp phosphopantetheinyl transferase inhibition. Biochemical Sfp PPTase activity, qHTS. AID 1490. Potency, µM, for inactives: max response, negative = inhibition, actives largely listed as inhibitors. 3.5% of 310,000 active; active means well fitted inhibition curve with a large enough effect; inconclusive means small, poorly fitted or top-dose-only effect, or another doubt; inactive means no such curve, though single readings can be large or run the other way;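 further: the enzyme is Sfp with the accession as filed and its product quenches rhodamine fluorescence; potency means the concentration at half of the fitted maximal effect; 0% = enzyme reaction without inhibitor and -100% = no enzyme wells; top concentration of the series not given in the record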
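After 15 min at room temperature with compound, 15 nM Sfp received 5 uM rhodamine-CoA plus 12.5 uM BHQ-2-ybbR (50 mM Hepes pH 7.6, 10 mM MgCl2). Rate came from the fluorescence difference over 30 min, ex 525/em 598 nm.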
PINK1 modulator: changes PINK1 expression; AID 624263; 0.2% of 410,000 active; PINK1 immunofluorescence, high-content cytometry, 24 h; Potency, µM (top dose mostly 76.6 µM), inactives show at the highest dose activation (PINK1 increase), usual class: activators; active = well fitted activation curve with a large enough effect; inconclusive = small, poorly fitted or top-dose-only effect; inactive = flat fitted curve, though single readings scatter; cell line not stated here;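 further: potency means the concentration at half of the fitted maximal effect; % of control where 0% means no effect; nearly all actives have a fitted effect of over 65% in size; a mitochondrial uncoupler was the plate control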
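Compound titrations (5 concentrations, 24 h) on a stable cell line; DMSO and CCCP controls. Endpoint: fixed-cell PINK1 immunofluorescence with mitochondrial, cell and nuclear markers, scanned by microplate cytometer.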
D2 agonist: human D2 receptor agonism in beta-arrestin assay | P14416 | activation, % (no concentration beside the values) | DiscoveRx PathHunter D2 beta-arrestin, luminescence, 90 min; 100% = 57 uM dopamine signal | 0.084% of 360,000 active; in the data active = activation above about 40%; inconclusive = about 15% to 40%; inactive = below about 15%; further: compound concentration not given in the record; the text of the record calls up to 30% inactive
Target sequence (P14416 whole entry, looked up): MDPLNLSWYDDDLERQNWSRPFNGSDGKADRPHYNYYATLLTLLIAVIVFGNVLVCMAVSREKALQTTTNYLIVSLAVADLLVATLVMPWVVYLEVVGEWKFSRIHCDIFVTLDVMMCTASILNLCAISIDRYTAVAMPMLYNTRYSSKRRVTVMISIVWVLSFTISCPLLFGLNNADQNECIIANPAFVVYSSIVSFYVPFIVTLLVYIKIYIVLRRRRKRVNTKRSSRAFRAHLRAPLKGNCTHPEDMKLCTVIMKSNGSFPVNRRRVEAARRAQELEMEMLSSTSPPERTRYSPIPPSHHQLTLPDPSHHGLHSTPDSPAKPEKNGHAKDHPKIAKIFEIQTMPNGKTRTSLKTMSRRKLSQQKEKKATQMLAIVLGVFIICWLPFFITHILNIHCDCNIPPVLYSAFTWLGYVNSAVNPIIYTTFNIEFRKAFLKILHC
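Agonist mode: compounds alone added to overnight-plated D2 PathHunter cells for 90 min at 37 C, with 57 uM final dopamine (EC100) defining full response. Beta-arrestin recruitment detected by chemiluminescent reagent, read after 1 h at ambient temperature.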
gsp antagonist: antagonists of gsp mutant (McCune-Albright syndrome) | gsp-mutant cells, cAMP HTRF, 30 min; control for the full effect not named in the record | Potency, µM (titrated, usually from 76.9 µM), for inactives: at the top dose activity change, negative = inhibition, actives largely listed as inhibitors | 0.4% of 340,000 active | AID 624288; active = falling curve of any shape with a large fitted effect; inconclusive = falling curve, mostly with a smaller effect; inactive = flat or rising curve; cell line not stated here;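 further: intracellular cAMP measured with PDE inhibitor Ro 20-1724 present during compound exposure; potency means the concentration at half of the fitted maximal effect; on the % scale 0 is the no-effect control and ±100 the full control effect; nearly all actives have a fitted effect of over 65% in size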
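HTRF cAMP measurement after 30 min RT detection following 30 min, 37C compound treatment alongside […] (added as 300 uM solution) in G418-selected cells seeded at 2000/well and grown 16–24 h.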
Menin-MLL FL inh: inhibitors of human menin-MLL interaction, wild-type MLL peptide | Fluorescence polarization, fluorescein-MLL peptide displacement from menin | FP activity change, % at 61.4 µM | 290,000 tested, under 10 active; inconclusive = falling polarisation curve, or a change in total fluorescence; inactive = total fluorescence flat and polarisation flat or rising; no compound was filed as active; the % refers to the polarisation; negative = inhibition;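 further: % of control where 0% means no effect; inhibitors lower the polarisation; unlabelled MLL peptide was the positive control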
gsp agonist: agonists of gsp mutant (McCune-Albright syndrome) | gsp mutant cells, cAMP HTRF, 30 min; control for the full effect not named in the record | Potency, µM (titrated, usually from 76.9 µM), for the others: at the highest dose activation (cAMP increase), usual class: activators | 0.13% of 340,000 active | AID 624287; active = well fitted activation curve with a large enough effect; inconclusive = small, poorly fitted or top-dose-only effect, or another doubt; inactive = no such curve, though single readings can be large or run the other way; cell line not stated here;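 further: phosphodiesterase inhibitor Ro 20-1724 added with compounds to block cAMP breakdown; potency means the concentration at half of the fitted maximal effect; nearly all actives have a fitted effect of over 60% in size; about a fifth of the inactives were tested at one dose only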
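Cells stably selected in G418 were plated at 2000/well, grown 16-24 hr, then given compounds in DMSO with the PDE inhibitor […] (300 uM solution added) for 30 min at 37C; cAMP was read by HTRF.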
ClpP mod: qHTS Assay for Activators of ClpP; purified B. subtilis ClpP, FRET peptide cleavage, 20 min; 1.9% of 340,000 active; Potency, µM (titrated, usually from 57.5 µM), for inactives: at the top dose activity change, negative = active; ATP-dependent Clp protease proteolytic subunit (Bacillus subtilis (strain 168)), P80244; active = well fitted falling curve with a large enough effect; inconclusive = small, poorly fitted or top-dose-only effect; inactive = no such curve, though single readings can be large or run the other way; further: potency means the concentration at half of the fitted maximal effect; the source files actives as falling curves though it sought activators and does not explain the sign; nearly all actives have a fitted effect of over 65% in size; many hits overshoot -100%
Target sequence (P80244 whole entry, looked up): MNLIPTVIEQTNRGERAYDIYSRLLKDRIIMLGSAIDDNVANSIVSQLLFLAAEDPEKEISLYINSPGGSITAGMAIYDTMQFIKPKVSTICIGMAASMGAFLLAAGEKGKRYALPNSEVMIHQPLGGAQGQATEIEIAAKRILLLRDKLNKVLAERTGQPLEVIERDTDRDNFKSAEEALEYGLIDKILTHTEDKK
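Buffer: 100 mM Tris/HCl pH8, 100 mM KCl, 0.05% low protease BSA, 2.5% glycerol, 0.01% Tween-20. ClpP 10 microg/mL final; 20 min RT; delta FRET normalized to ADEP and DMSO controls.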
The depositor's hits bear a star; ? = inconclusive; . = no result given; & = joins results of further samples; [ ] = remark or other dose.

SMILES	Sfp inh	PINK1 modulator	D2 agonist	gsp antagonist	Menin-MLL FL inh	gsp agonist	ClpP mod
COc1cc(NC(=O)CN2C(=O)NC(C)(CC(C)C)C2=O)cc(OC)c1 (centres undefined)	8%	2.1%	0.4	17%	0.1	2%	-5.9%
CCCCOC(=O)c1cccc(NC(=O)CC)c1	6%	0.0%	-3.8	-6%	2.3	-26%	-2.6%
Nc1ccc(S(=O)(=O)c2cc(O)c3ccccc3c2O)cc1	.	0.5%	?	-10%	.	-1%	15%
COc1ccc(/C(N)=N/OC(=O)C2CCC(=O)N2S(=O)(=O)c2ccc(C)cc2)cc1OC (centres undefined)	-11%	-0.5%	10	-2%	4.9	-1%	-2.8%
Cc1cccc(OCCNC(=O)CCNS(=O)(=O)c2ccc3ccccc3c2)c1	.	-0.7%	-3.8	?	.	0%	-0.1%
COc1cccc(-c2cc(C(F)(F)F)nc(N3CCN(c4ccccc4)CC3)n2)c1	12%	2.2%	-3.7	12%	-2.7	-14%	1.1%
O=C(CCN1C(=O)c2ccccc2C1=O)Nc1cc(F)ccc1F	16%	-0.4%	1.8	-2%	-0.1	-15%	-1.3%
Cc1cccc(N(NC(=O)C(C)(C)O)C(=O)c2ccccc2)c1	15%	-0.2%	-1.7	-1%[15.4 µM]	-0.2	26%	-2.0%
O=C(NNC(=O)C1CC1)c1ccc(F)cc1F	.	1.1%	-1.3	8%	.	18%	.
Cc1cc(NC(=O)COC(=O)C(C)Oc2ccc(Cl)cc2Cl)no1 (centres undefined)	11%	1.0%	-7.3	-5%	1.6	9%[15.4 µM]	.
O=C(CSc1nnc(-c2ccco2)n1CC1CCCO1)N1CCCCC1 (centres undefined)	2%	2.7%[38.3 µM]	0.4	7%	-0.1	16%	-3.8%
Cc1c(NC(=O)c2noc3c2CCc2ccccc2-3)c(=O)n(-c2ccccc2)n1C	.	-0.4%	-4.8	12%	.	-1%	-2.0%
O=C(Nc1ccc(C(=O)N2CCCC2)cc1)C1CC1	.	1.5%	0.2	14%	.	.	1.9%
CCn1c(=O)c2sccc2n2c(CCCC(=O)N3CCN(c4ccccn4)CC3)nnc12	12%	-0.2%	6.6	-1%	.	?	-16%
COc1ccc(C(CC(=O)c2ccc(C)cc2)Nc2ccc([N+](=O)[O-])cc2)cc1 (centres undefined)	3%	2.1%	-4.5	-18%	4.2	10%	-15%
CCN(C[C@H]1N[C@@](CC)(C(=O)OC)[C@H]2C(=O)N(C)C(=O)[C@@H]12)S(=O)(=O)c1ccc(F)cc1	.	-0.9%	-0.8	9%	.	.	-2.5%
COc1ccc(N(CC(=O)NCc2ccco2)S(=O)(=O)c2ccccc2)cc1	-13%	2.6%	-3.6	8%	-3.7	-8%[15.4 µM]	.
Cc1cc2[nH]c(=O)c(=O)[nH]c2cc1S(=O)(=O)Nc1cccc(Cl)c1	4%	1.0%	0.4	6%	.	16%	-14%
COc1ccc(-n2nc(C(=O)NCC(=O)NCc3cccc(F)c3)c3ccccc3c2=O)cc1Cl	-8%	11%	-0.9	-12%	2.0	?	.
CN1CCN(S(=O)(=O)c2cccc(C(=O)N(Cc3nnc(-c4ccc(Cl)cc4)o3)C3CC3)c2)CC1	.	-0.7%	0.0	-22%	.	-19%[15.4 µM]	.
CCCn1c(SCC(=O)Nc2cccc(C)n2)nc2c1c(=O)n(C)c(=O)n2C	16%	-0.8%	2.5	-22%	0.0	-31%[15.4 µM]	.
CCOc1ccc(NC(=O)CN(C2CCCCC2)S(C)(=O)=O)cc1	12%	1.4%	-3.6	-2%	-0.4	-18%	1.4%
CC1CCCCN1C(=O)COC(=O)C1CCN(S(=O)(=O)c2c(Cl)cccc2Cl)CC1 (centres undefined)	2%	0.6%	-1.4	-8%	.	12%	16µM*
COc1ccc(C=NNC(=O)CCCCC(=O)NN=Cc2ccc(OC)cc2)cc1	.	6.1%	-1.8	3%	.	7%	.
CN1CCN(c2ccccc2NC(=O)c2ccc(N3CCOCC3)c([N+](=O)[O-])c2)CC1	-7%	-1.2%	-4.0	0%	-2.4	0%	1.0%
O=C(Oc1coc(CSc2ncccn2)cc1=O)c1cccs1	6%	1.4%	-1.2	13%	0.8	-4%	.
CCCCNC(=O)c1cccc(C(=O)NCCCC)c1	6%	-1.0%[38.3 µM]	-1.0	-4%	-0.6	?	-0.8%
CCOC(=O)Cc1c(C)nc2c(-c3ccc(Cl)cc3)c(C)[nH]n2c1=O	-2%	?	0.2	-12%	4.8	-56%[inhibitor]	14µM*
Cc1ccc(OC(=O)c2cccnc2)cc1	4%	0.4%	0.7	11%	3.6	-4%	.
Cc1cc2c3c(c1C)C1(C(=O)N3C(C)(C)CC2C)C(C#N)=C(N)OC2=C1C(=O)CC(C)(C)C2 (centres undefined)	6%	-0.2%[38.3 µM]	-2.4	8%	-2.9	-8%	-0.2%
CC(C)Oc1cccc(C(=O)NC(=S)Nc2cccc(NC(=O)c3ccccc3Cl)c2)c1	4%	7.6%	-1.1	4%	2.6	-4%	-6.5%
CCOc1ccc(S(=O)(=O)N(CC)CC(=O)NCc2cccnc2)cc1	11%	-0.5%	4.0	8%	-3.2	-18%	.
COc1ccc([C@H]2C(C(=O)O)=C[C@@H](C(C)(C)C)N2S(=O)(=O)c2ccc(C)cc2)cc1OC	.	-1.8%	-0.6	-6%	.	.	-2.2%
CCOC(=O)CSc1nnc(NC(=O)C2CC(=O)N(c3ccc(F)cc3)C2)s1 (centres undefined)	-1%	1.4%	-6.8	-6%	.	0%[15.4 µM]	-21%
Cc1cccc(C)c1NC(=O)CN(C)C(=O)c1cccc(S(=O)(=O)N2CCN(c3ccccc3)CC2)c1	3%	4.2%	-5.7	-31%	2.4	1%	1.0%
Cc1ccc(C(=O)Nc2cccc(C(F)(F)F)c2)cc1NC(=O)c1nccn1C	?	7.5%&4.7%	-2.3&0.0	4%	5.3	?	4.3%&4.4%
CC(C)CC1NC(=S)N(Cc2ccccc2)C1=O (centres undefined)	-19%	-2.1%	-12	-13%	-0.1	0%	1.5%
COc1cc(N(C(C)=O)c2ccc(O)c(C(=O)O)c2)c2ncccc2c1	.	-0.5%	11	.	.	-1%	-1.7%
Cc1cccc(N2CCN(Cc3nc(-c4cccc(Cl)c4)oc3C)CC2)n1	-14%	17%	-4.4	2%	2.2	-14%[15.4 µM]	.
CCN1CCN(C(=S)NC(=O)c2cccc(Br)c2)CC1	.	-2.8%	-1.4	11%	.	-79%[inhibitor]	4.6%
CC1(C)CC(=O)CC(=Nc2ccc(C(=O)O)cc2)C1	10%	1.8%	0.2	1%	3.5	-21%	-2.3%
Cn1nc(-c2ccccc2)c(-c2nc(-c3ccccc3Cl)no2)c1Cl	-2%	3.6%	-5.0	-22%	-2.8	-22%	-0.4%
Cc1ccccc1Cn1cc(S(=O)(=O)CC(=O)N2CCCCC2)c2ccccc21	-1%	0.1%[38.3 µM]	0.2	-5%	-1.7	9%	-1.7%
CCCn1nnnc1NC(=O)COc1ccc(Br)cc1	6%	7.0%	-2.6	0%	-3.4	0%[15.4 µM]	.
Cc1cccn2c(=O)c3cc(C(=O)NC4CCCC4)n(C)c3nc12	-5%	1.0%	-4.4	-120%	-2.8	?	3.6%
O=C(COC(=O)c1cnccn1)NCc1ccccc1	19%	13%[38.3 µM]	-0.9	-5%	5.6	6%	-0.8%
COc1ccc(-c2nn(-c3ccccc3)cc2C(=O)N/N=C/c2ccc([N+](=O)[O-])o2)cc1	-5%	-2.4%	13	-19%	7.3	?	.
Nc1cc(Cl)nnc1Cl	18%	1.7%	-2.4	6%	8.6	26%	.
O=C(c1cccc(S(=O)(=O)N2CCOCC2)c1)N(Cc1nnc(-c2ccccc2Cl)o1)C1CC1	.	0.0%	1.9	-10%	.	19%[15.4 µM]	.
O=C1NC(c2ccccc2)=NC1(Nc1ccccn1)C(F)(F)F (centres undefined)	8%	1.9%	-4.8	5%	-2.3	-8%[15.4 µM]	0.4%
CCC(=O)NC(Nc1nc(C)cs1)(C(=O)OC)C(F)(F)F (centres undefined)	1%	-0.8%	0.1	17%	1.0	-39%	-1.5%
CCN(CC#CCC(O)(c1ccccc1)c1ccccc1)C(C)C	?	-0.3%	-1.8	-1%	0.8	?	-2.9%
Cc1c(-c2ccco2)[n+](=O)c2c(n1[O-])CCCCC2	-21%	-2.6%	-1.0	17%	3.2	-18%	-5.2%
Nc1ccccc1S(=O)(=O)NC1=NCCCCC1	-2%	0.2%	-5.3	10%	-1.8	-37%[inhibitor]	-0.6%
O=C(O)c1ccc(NS(=O)(=O)c2ccc3c(c2)C(=O)c2ccccc2C3=O)cc1	-8%	-1.4%	2.9	4%	-22	4%	.
CC(=O)Nc1cccc(NC(=O)C2CCN(C(=O)c3ccco3)CC2)c1	20%	0.7%	-1.8	3%	0.7	15%[15.4 µM]	.
CC(C)=CC(=O)Nc1nnc(C(C)C)s1	11%	-0.1%	-2.1	15%	0.6	-17%	1.8%
Cc1ccccc1NC(=O)CN1C(=O)CSc2ccccc21	6%	6.8%	-0.1	10%	1.5	1%	.
COc1ccc(S(=O)(=O)NCc2ccc3c(c2)OCO3)cc1C	13%	1.9%[38.3 µM]	-2.4	-2%	2.2	-53%[inhibitor]	-2.5%
Cc1cc(C)cc(C(=O)N(NC(=O)Nc2ccc(Cl)cc2)C(C)(C)C)c1	16%	16%	-3.6	-6%	-1.0	1%	1.7%
Cc1cc(=O)oc2c(C)c(OCC(=O)N3CCN(c4ccc(F)cc4)CC3)ccc12	7%	0.2%	4.2	-1%	.	?	.
CCOC(=O)C1C(=O)OC(C)(C)C1C(C)C(=O)c1ccc(C)cc1C (centres undefined)	11%	-1.7%	2.1	0%	-8.0	?	.
Cc1cc(N(CN2CCCC2=O)C(=O)c2ccc(F)cc2)no1	-9%	.	-0.4	-4%	0.0	?	-2.2%

Compound activity (PubChem BioAssay)
